# Screens deposited in PubChem BioAssay by National Center for Advancing Translational Sciences (NCATS).
# TRPML1 ag: human mucolipin-1 channel agonism. Q9GZU1. TRPML1-expressing cells, Ca2+ dye fluorescence, FDSS; host cell line not named in the record; reference of the full effect not given here. activation, % (concentration not given with the values). actives 0.12% (n = 410,000). AID 624414; in the data active = activation above about 50%; inconclusive = about 30% to 50%; inactive = below about 30%; also: 0% is about no effect; the text of the record puts the active cut at 80%
#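 Tet-induced TRPML1-DL cells, 1,500 per well, cultured overnight, were loaded with a no-wash Ca2+ dye for 45–90 min. Calcium fluorescence was recorded on the FDSS for 110 s after compound addition, before the EC80 agonist (4 uM 54-4) was added.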
# Six1-Eya2 blk: Six1/Eya2 interaction inhibition; Q15475+O00167; AlphaScreen GST-Six1/His-Eya2 binding, biochemical; hits give low values; control for the full effect not named in the record; activity change, % (no concentration beside the values); actives 0.56% (n = 360,000); AID 651725; in the data active = activity change below about -65%; inconclusive = about -30% to -65%; inactive = above about -30%; also: % is scaled to controls: 0 for no effect and ±100 for the full control effect; compound concentration not given in the record
# Target sequence (O00167 whole entry, looked up): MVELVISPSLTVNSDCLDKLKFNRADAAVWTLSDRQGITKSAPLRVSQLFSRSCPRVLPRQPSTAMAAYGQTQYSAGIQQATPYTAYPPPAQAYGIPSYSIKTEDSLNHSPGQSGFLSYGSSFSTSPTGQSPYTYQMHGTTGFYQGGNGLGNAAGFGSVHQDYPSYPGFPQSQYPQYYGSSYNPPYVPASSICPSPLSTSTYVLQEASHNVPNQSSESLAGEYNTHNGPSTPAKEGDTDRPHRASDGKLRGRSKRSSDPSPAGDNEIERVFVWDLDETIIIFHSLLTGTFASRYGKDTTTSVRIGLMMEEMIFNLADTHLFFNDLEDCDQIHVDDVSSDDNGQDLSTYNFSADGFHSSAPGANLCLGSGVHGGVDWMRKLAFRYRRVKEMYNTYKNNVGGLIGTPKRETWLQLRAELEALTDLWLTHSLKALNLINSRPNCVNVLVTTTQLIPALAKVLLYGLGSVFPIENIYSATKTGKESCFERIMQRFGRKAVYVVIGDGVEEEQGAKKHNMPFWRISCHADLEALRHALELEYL
# Target sequence (Q15475 whole entry, looked up): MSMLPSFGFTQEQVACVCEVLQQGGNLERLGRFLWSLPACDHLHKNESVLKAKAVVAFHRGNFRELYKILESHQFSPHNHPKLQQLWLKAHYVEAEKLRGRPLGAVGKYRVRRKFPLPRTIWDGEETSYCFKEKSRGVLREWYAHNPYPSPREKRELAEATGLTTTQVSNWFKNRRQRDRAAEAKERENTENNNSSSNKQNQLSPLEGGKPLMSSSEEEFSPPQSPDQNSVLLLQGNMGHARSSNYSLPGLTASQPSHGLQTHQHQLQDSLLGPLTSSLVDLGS
#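 Homogeneous AlphaScreen proximity assay pairing GST-Six1 with His-tagged Eya2 (added as 5X mix: 250 nM and 500 nM) in 50 mM Tris pH 8.0, 300 mM NaCl, 1 mM TCEP. Glutathione donor and nickel acceptor beads; 1 h, 37 °C, dark.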
# D2 potentiator: potentiates the human D2 dopamine receptor allosterically. P14416. DiscoveRx D2 beta-arrestin cells, luminescence, 90 min; 100% = 57 uM dopamine signal. actives 0.23% (n = 360,000). AID 624464. potentiation, % (test concentration not listed); active = potentiation of 50% or more; inconclusive = 30% to 50%; inactive = 30% or less;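 also: compound concentration not given in the record; tested on top of an EC20 dose of dopamine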
#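 D2 cells co-treated with compound plus 50 nM dopamine (EC20) for 90 min at 37 deg C to detect potentiation. Beta-arrestin recruitment was read as enzyme-fragment luminescence after 1 h at ambient temperature. Full response was set by 57 uM dopamine.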
# TRPML1 blocker: inhibitors of human TRPML1 channel | TRPML1-inducible cells, Ca2+ dye fluorescence, FDSS; hits give low values; inhibition of EC80 agonist-evoked calcium signal | Q9GZU1 | activity change, negative = inhibition, % (no concentration beside the values) | actives 0.02% (n = 390,000); in the data active means activity change below about -50%; inconclusive means about -30% to -50%; inactive means above about -30%;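 also: stimulus is agonist 54-4 at its EC80 concentration; % is scaled to controls: 0 for no effect and ±100 for the full control effect; compound concentration not given in the record; the text of the record puts the active cut at -80%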
#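 Calcium fluorescence in TRPML1-DL cells induced overnight with Tet: a 110 s read after compound pin addition, then a 110 s antagonist read after challenge with 54-4 at 4 uM final (EC80).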
# D2 ag: activates the human D2 dopamine receptor | P14416 | DiscoveRx PathHunter D2 beta-arrestin, luminescence, 90 min; 100% = 57 uM dopamine signal | activation, % (test concentration not listed) | actives 0.084% (n = 360,000) | AID 624465; in the data active = activation above about 40%; inconclusive = about 15% to 40%; inactive = below about 15%; also: compound concentration not given in the record; the text of the record calls up to 30% inactive
#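 Agonist mode: compounds alone added to overnight-plated D2 PathHunter cells for 90 min at 37 C, with 57 uM final dopamine (EC100) defining full response. Beta-arrestin recruitment detected by chemiluminescent reagent, read after 1 h at ambient temperature.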
# PINK1 modulator: modulators of PINK1 expression. Potency, µM (top dose mostly 76.6 µM), for the others: at the top dose activation (PINK1 increase), most hits filed as activators. PINK1 immunofluorescence, high-content cytometry, 24 h. actives 0.2% (n = 410,000); active = well fitted activation curve with a large enough effect; inconclusive = small, poorly fitted or top-dose-only effect; inactive = flat fitted curve, though single readings scatter; cell line not stated here;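 also: potency is read from the fitted curve at half-maximal effect; % of control where 0% means no effect; nearly all actives have a fitted effect of over 65% in size; a mitochondrial uncoupler was the plate control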
#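 Cells are seeded, rested 12 hours, then given compound at five concentrations or DMSO for 24 hours. After fixation, blocking and antibody staining, PINK1 amount and mitochondrial localization are scored; CCCP serves as control.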
# The depositor's hits bear a star; ? = inconclusive; · = not tested or not shown; [ ] = remark or other dose.
SMILES,TRPML1 ag,Six1-Eya2 blk,D2 potentiator,TRPML1 blocker,D2 ag,PINK1 modulator
O=C(Nc1cccc(C(F)(F)F)c1)c1cc(-c2ccc(Cl)s2)nc2ccccc12,0.6,·,·,0,·,-1.0%
O=CN1CCN(C(=O)c2ccc(Br)o2)CC1,-0.2,-2,6,-12,-1.3,0.6%
CCOC(=O)C1CCCN(Cc2ccc(OC)c(OCc3ccccc3)c2)C1 (configuration not stated),1.8,-2,-3,56,-5.4,-0.9%
Cc1ccc2c(=O)cc(C(F)F)oc2c1,-0.9,-7,-23,-1,-2.9,1.8%
O=S(=O)(NCCC1=CCCCC1)c1ccc(Br)cc1,0.1,12,13,-4,0.7,10%
COCC(=O)N1CCC(Oc2ccc(C(=O)N3CCCCCCC3)cc2)CC1,-0.2,5,-3,5,0.0,0.9%
COc1ccc(NS(=O)(=O)c2ccc(C)c(C(=O)NCc3ccccc3CN3CCCC3)c2)cc1,0.0,-2,-44,-4,0.2,1.4%
CC1CCN(C(=O)Cn2nc(C(F)(F)F)c3c2CCCC3)CC1,-0.7,4,-6,-17,-3.8,5.3%[38.3 µM]
Cc1cc(C)cc(NC(=O)CN2C(=O)c3ccccc3Sc3ccc(C(=O)N4CCOCC4)cc32)c1,0.6,·,·,3,·,0.0%
CCC1C2CN(C(C)=O)CC=C2C(C#N)=C(N)C1(C#N)C#N (configuration not stated),-0.1,-1,-9,-23,-3.1,-0.8%
CCOC1=C2CN(S(=O)(=O)c3ccc(C)cc3)[C@@H](c3cccc4ccccc34)C[C@H]2[C@H]2C(=O)N(c3ccccc3)C(=O)[C@H]2C1,0.1,4,-3,·,-2.7,2.9%
CCC1(CC)N([O-])C(C)=C(c2ccccc2)[N+]1=O,-0.2,6,-7,13,2.5,1.5%
COc1ncnc2c1N[C@@](C)(O)c1c(F)c(F)c(F)c(F)c1S2,1.1,-5,9,-26,-0.2,-0.8%
COCCNC(=O)CN1CCC(NC(=O)Nc2ccccc2)CC1,0.2,4,-7,3,-0.8,·
COc1ccc(C(=O)C2CCCN(C3Cc4ccccc4C3)C2)c(OC)c1 (configuration not stated),-0.1,-4,-17,-4,-3.9,3.8%
Cn1nc(-c2ccccc2)cc1NS(=O)(=O)c1ccccc1,-1.0,-1,-16,62,-4.7,1.0%
O=C(NC1CCCCC1)c1ccc(S(=O)(=O)NCc2cccnc2)cc1,0.1,8,5,-5,1.0,1.1%[38.3 µM]
CCOC(=O)Cc1csc(NC(=S)NC(=O)c2ccccc2Br)n1,4.6,0,-12,28,-7.8,2.1%
O=C(NCCNc1ccc([N+](=O)[O-])cc1)c1ccco1,-0.7,-1,-19,3,-4.7,2.8%
O=C(c1ccc(CN2CCc3ccccc3C2)cc1)N1CCCCC1,-1.3,-4,-37,6,-1.5,-1.9%
CCOC(=O)CS(=O)(=O)c1ccc2ccccc2c1,-0.9,3,22,6,-4.7,0.4%
COc1ccc2cnn(-c3ccccc3)c(=O)c2c1OC,-0.6,7,-1,2,-4.9,-1.1%
Cc1ccccc1-c1nc(CS(=O)(=O)CC(=O)NCc2ccccc2)c(C)o1,2.5,-7,-4,-2,6.5,2.9%
COc1ccc(C(=O)NCc2ccon2)cc1OC1CCN(C(C)C)CC1,0.1,4,-11,-7,-3.7,-0.6%
Cc1cccc(-n2ncc3c(NCCCn4ccnc4)ncnc32)c1,-0.3,-16,9,8,-3.0,0.0%
O=C(COC(=O)/C=C/c1ccc(F)cc1)NCc1cccs1,0.3,10,-4,-11,-7.5,0.8%
COc1ccc(NC(=O)COC(=O)Cc2c[nH]c3ccccc23)cc1OC,-1.3,-3,5,9,-1.7,0.4%
COCCOC(=O)C1=C(C)NC(=O)NC1c1c(F)cccc1Cl (configuration not stated),-0.2,3,8,4,-0.7,·
CCC(NC(=O)c1ccncc1)c1ccccc1 (configuration not stated),-0.3,0,-1,-3,-3.6,-0.4%
C[C@]12C=CC(=O)C=C1CC[C@@H]1[C@@H]2[C@@H](O)C[C@@]2(C)[C@H]1CC[C@]2(O)C(=O)COC(=O)CCC(=O)NCCc1ccc(O)cc1,0.5,-1,-4,-5,-1.2,3.7%
CCOc1ccc(-c2nnc(SCC(=O)Nc3cccc(Cl)c3C)o2)cc1,-0.4,·,·,-24,·,0.0%
O=C(NCc1ccco1)c1cc(-c2cccs2)nc2ccccc12,0.7,-3,0,6,-3.5,-0.2%
COc1ccccc1-n1c(=O)c2c3c(sc2n(C)c1=O)CN(C(C)=O)CC3,1.3,·,·,-11,·,0.1%
CC1(C)Cc2c(C#N)c(SCC(=O)c3ccccc3)nc(N3CCOCC3)c2CO1,1.2,-14,9,8,-5.2,-1.0%
CCOc1ccccc1CN1CCN(Cc2ccc(C)o2)C(CCO)C1 (configuration not stated),-0.1,1,-13,10,-1.4,0.3%
CCc1ccc(-n2c(SCc3ccccc3Cl)nc3[nH]ncc3c2=O)cc1,2.1,·,·,-1,·,-0.5%
COC(=O)Cc1ccc(NC(=S)Nc2ccccn2)cc1,-0.9,1,-5,30,-0.2,1.3%
COc1ccc(OC)c(NC(=O)c2cnc(Nc3ccccc3OC)c3ccccc23)c1,0.3,35,-25,11,0.4,?
CCOC(=O)c1c(NC(=O)CCS(=O)(=O)c2ccccc2)sc2c1CCN(C(C)C)C2,0.2,-5,2,19,-6.9,1.7%
CN1CCN(S(=O)(=O)c2ccc(-c3noc(C4CCN(S(C)(=O)=O)CC4)n3)cc2)CC1,0.6,5,1,16,-3.0,2.8%[38.3 µM]
Fc1ccccc1N1CCN(CC2CC3C=CC2C3)CC1 (configuration not stated),0.0,-2,-7,-6,?,-3.6%[38.3 µM]
Cc1ccc(-c2csc(C(C)(O)c3ccc(F)c(F)c3)n2)cc1C (configuration not stated),-0.1,4,-9,·,12,23%
Cc1cccc(C)c1OCC(O)CNC(C)(C)C (configuration not stated),-0.8,1,-5,19,0.8,-1.5%
O=C(/C=C\N1CCOCC1)c1ccc(Br)cc1,0.5,-3,-4,-1,-0.6,-1.2%
O=C1OC(N2C(=O)CC[C@H]2C(=O)Nc2ccc3c(c2)OCO3)c2ccccc21 (some centres not stated),·,1,-2,·,-3.4,0.9%
O=C(NN1CCCCC1)c1cccc(COc2ccc(Cl)cc2)c1,-0.7,-3,10,6,-2.3,0.1%
C=CCc1c(C)nc2cc(-c3ccc(C)cc3)[nH]n2c1=O,1.4,-2,-25,19,-0.7,-0.3%
COC(=O)c1cc(NS(=O)(=O)c2ccc(N3CCCCC3)c([N+](=O)[O-])c2)cc(C(=O)OC)c1,-0.1,-23,-33,31,-5.0,1.8%
OCCn1ccc(-c2ccccc2OCc2ccc(F)cc2)n1,1.4,3,0,-1,-1.2,2.0%
Cc1cc(C)n2nc(SCC(=O)Nc3ccccc3F)nc2n1,4.0,-7,-1,-4,-2.2,3.6%
COc1ccc(C)cc1C(=O)CCC(=O)NC1CCCCC1,-0.3,-3,-5,-2,-4.2,0.4%
Cc1ccc(Cn2cc(/C=N/NC(=O)Cc3nnc(NC(=O)c4ccc(C)cc4)s3)c3ccccc32)cc1,2.4,1,-23,-6,-4.8,8.9%
CCCc1nn(C)c(C(=O)Nc2ccc(C)c(C)c2)c1Cl,-0.4,8,-4,-10,-4.3,15%
CC1CCN(C(=O)c2cc3nc(C4CC4)cc(C(F)(F)F)n3n2)CC1,0.9,5,8,-10,-2.6,-0.3%
Cc1ccc(C(=O)COC(=O)CCN2C(=O)C3C4CC(C(Br)C4Br)C3C2=O)cc1 (configuration not stated),1.8,8,-5,-1,0.7,1.7%
O=C(Cc1ncon1)Nc1ccc(F)c(F)c1F,1.2,11,-3,-6,-2.5,-3.8%
CN(CCO)C1=CC(=O)CC(C)(C)C1,0.3,5,-6,0,-4.0,-0.9%
COc1cccc2c1OCC(CN1CCN(C3CCCCC3)C(CCO)C1)=C2 (configuration not stated),-0.6,-2,-13,-5,-2.1,-0.1%
CC(=O)N1CCC(N(CCN2CCOCC2)C(=S)Nc2cccc(C)c2)CC1,0.0,5,-11,-2,-1.5,1.4%
CN1CCN(S(=O)C23CC4CC(CC(C4)C2)C3)CC1 (configuration not stated),0.2,2,-5,-21,0.6,-4.2%[38.3 µM]

# By substructure: those above containing bromine
SMILES,TRPML1 ag,Six1-Eya2 blk,D2 potentiator,TRPML1 blocker,D2 ag,PINK1 modulator
O=CN1CCN(C(=O)c2ccc(Br)o2)CC1,-0.2,-2,6,-12,-1.3,0.6%
O=S(=O)(NCCC1=CCCCC1)c1ccc(Br)cc1,0.1,12,13,-4,0.7,10%
CCOC(=O)Cc1csc(NC(=S)NC(=O)c2ccccc2Br)n1,4.6,0,-12,28,-7.8,2.1%
O=C(/C=C\N1CCOCC1)c1ccc(Br)cc1,0.5,-3,-4,-1,-0.6,-1.2%
Cc1ccc(C(=O)COC(=O)CCN2C(=O)C3C4CC(C(Br)C4Br)C3C2=O)cc1 (configuration not stated),1.8,8,-5,-1,0.7,1.7%

# (cont.)
SMILES,TRPML1 ag,Six1-Eya2 blk,D2 potentiator,TRPML1 blocker,D2 ag,PINK1 modulator
O=C(COC(=O)CCc1c[nH]c2ccccc12)Nc1cccc(Cl)c1,1.0,26,-8,-2,-3.4,0.7%
COc1ccc(NC(=O)c2ccsc2NC(C)=O)cc1,2.0,-6,1,-8,0.6,2.5%
S=C(NCCSCc1ccc(Cl)cc1Cl)Nc1ccccc1,1.0,-1,20,-6,-0.9,-1.0%
CN(CC(=O)Nc1cccc(F)c1)C(=O)c1cc(-c2ccco2)nc2ccccc12,0.1,-18,2,-25,-3.1,-2.8%
O=C1CCC(C(=O)O)N1 (configuration not stated),·,10,-16,·,-2.8,0.2%
C#CCOCCOCCOCCNc1nc(N2CCN(C(=O)CCCCCCCCCCNC(=O)[C@H](CCCCN)n3cc(CCCC(=O)O)nn3)CC2)nc(N2CCN(C(=O)CCCCCCCCCCNC(=O)[C@H](CCCCN)n3cc(CCCC(=O)O)nn3)CC2)n1,0.2,5,-13,-19,-3.2,1.8%
CC(=O)N1CCC(C(=O)OCc2ccccc2F)(c2ccccc2)CC1,-1.5,3,-5,1,-5.0,-0.3%
COc1ccc(NC(=O)Cn2nnnc2-c2ccccc2F)c(C)c1,2.0,·,·,0,·,-0.6%
COc1ccc(F)cc1S(=O)(=O)NCC(c1ccc2c(c1)OCO2)N1CCN(C)CC1 (configuration not stated),0.4,7,1,4,-5.1,-0.9%
c1ccc2nc(-c3ccc(-n4ccnc4)cc3)ccc2c1,·,-9,-12,·,3.9,-1.5%
COc1ccc(C2CC(c3cccs3)=NN2C(=O)CSc2nc3c(cnn3-c3ccccc3)c(=O)[nH]2)cc1 (configuration not stated),-0.3,2,-6,31,0.9,0.0%
CCCS(=O)(=O)NC(=O)C1(C)CCN(C(=O)c2ccccc2OC(F)(F)F)C1 (configuration not stated),-0.4,4,-3,·,-2.8,-0.7%
